# High-throughput results (PubChem BioAssay)
# TAR Tat displ: HIV-1 TAR-Tat binding disruption; HIV-1 TAR RNA, Tat peptide displacement FRET; hits give high values; z-score (test concentration not listed); actives 0.6% (n = 100,000); AID 1259389;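 also: score is relative to mean and SD of negative controls; some compounds called inactive have numbers as strong as hits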
# CDC25B-CDK2 inh: human CDC25B-CDK2/CyclinA binding inhibition; P30305+P24941; HTRF CDC25B-CDK2/CyclinA binding, anti-His/anti-Flag; hits give high values; z-score (concentration not given with the values); actives 0.72% (n = 94,000); AID 1259370;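 also: score is relative to mean and SD of negative controls; strong numbers were not always called active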
# Active calls of the source: *; x = not tested or not shown; & = joins results of further samples.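 The calls were made as follows: active = z-score from 3 up in half or more of its runs; inactive = the rest.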 Compounds were not picked by outcome; overall some 0.97% were active at least once.
canonical_smiles | TAR Tat displ | CDC25B-CDK2 inh
CCOC(=O)c1nc(N2CCN(c3ccccn3)CC2)c2c(C)noc2n1 | -0.42 | x
CC(=O)OC1C(=O)OC2[C@@H](C)C(n3ccc(=O)[nH]c3=O)O[C@H]12 (stereo partly drawn) | -0.51 | -1.2
COC(=O)c1sc(=S)n2c1[nH]c(=O)c1ccccc12 | x | -0.49
Cc1cc(C)c2nc3s/c(=C\c4cc5c(cc4Br)OCO5)c(=O)n3c2c1 | x | -2.7
Clc1ccc2nc(NC3=NCN(Cc4ccccc4)CN3)oc2c1 | 0.03 | -0.06
Cc1cc2oc3c(c(=O)c2cc1C)C(c1ccc(O)cc1)N(c1ccccn1)C3=O (stereo not drawn) | -1.1 | -0.88
Cc1ccccc1CSc1nc2ncccc2[nH]1 | 0.71 | x
CC(C)n1c(N2CCN(C(=O)CCc3nc4ccccc4[nH]3)CC2)cc(=O)n(C(C)C)c1=O | 1.1 | x
Cc1cc(C)c2c(c1)c(C)cc1nnc(SCC(=O)Nc3nc(C)cs3)n12 | 0.39 | -2.1
CC(=O)c1nnn(-c2cc(Cl)cc(Cl)c2)c1C | x | -0.76
O=C(Cn1nc(-c2ccc(Cl)cc2)ccc1=O)NCc1ccc2c(c1)OCO2 | x | -2.4
COc1ccc2cc(C(C)c3nc4ccccc4[nH]3)ccc2c1 (stereo not drawn) | -0.46 | -10
O=S(=O)(c1ccc(Br)cc1)N1CCCN(Cc2ccccc2F)CC1 | x | 0.62
O=C(Nc1ccc(Cl)cc1)c1ccc2nonc2c1 | x | 0.62
COc1ccc(C(=O)Nc2nc(-c3ccc(S(=O)(=O)N4CCOCC4)cc3)cs2)cc1 | x | -17
CC(C)c1cc(-c2nc(-c3ccccc3)no2)n[nH]1 | 1 | x
COC(=O)c1ncn2c1C(=O)N(C1CC1)C(C)(C(=O)NCCCOC(C)C)C2 (stereo not drawn) | 0.31 | x
Cc1noc(C)c1S(=O)(=O)Nc1ccc(-c2cn3c(n2)SCC3)cc1 | x | -0.99
CN1C(C(=O)N2CCCCC2)=CC(c2ccc3c(c2)OCO3)=NS1(=O)=O | 1.4 | -1
CCOC(=O)Cc1csc(NC(=O)c2cnc3sc(C)cn3c2=O)n1 | 2.1 | x
CCCOc1ccc(C2C=C(C(=O)O)Nc3nnnn32)cc1OC (stereo not drawn) | 2.6 | x
CCOC(=O)c1cc(-c2ccc(S(=O)(=O)N3CC=C(c4c(C)[nH]c5ccccc45)CC3)s2)on1 | 1.2 | x
Cc1ccc(NC(=O)CSc2nnc(C)n3c2cc2occc23)c(Cl)c1 | 0.84 | x
O=c1c2c3c(sc2n(Cc2cc(=O)n4ccccc4n2)c(=O)n1Cc1ccccc1)CCCC3 | x | -1.3
CC1CN(c2ccc(NS(=O)(=O)c3ccccc3)cc2C(=O)O)CC(C)O1 (stereo not drawn) | x | -3
COc1cccc(C2=Nn3c(COc4ccccc4)nnc3SC2)c1 | 0.23 | x
COC(=O)c1ccc(COc2ccc(NC(C)=O)cc2)o1 | x | -1.5
CCOC(=O)c1cnc(C(F)(F)F)nc1Oc1ccccc1 | x | -1.6
COc1ccccc1NS(=O)(=O)c1c(C)nc2sccn2c1=O | 2.1 | x
COc1cc(S(=O)(=O)N2CCc3ccccc3C2)c(C)cc1C | x | -1.1
CCC(C)Nc1ncnc2sc(C(=O)O)c(C)c12 (stereo not drawn) | 3.3 | x
CCC(=O)N1c2ccccc2CC1C(=O)NCc1ccco1 (stereo not drawn) | 0.89 | x
Cn1ncc2c(Nc3ccc(F)cc3)nc(N)nc21 | 0.66 | -1.2
COc1ccc(OC)c(NC(=O)Nc2nc(-c3nc4ccccc4[nH]3)cs2)c1 | 0.95 | 0.71
c1ccc2c(c1)c1ccccc1c1nc3nonc3nc21 | x | -1.1
CN1C(C(=O)c2ccccc2)=C(NC(=O)c2ccc(Cl)cc2)c2ccccc2S1(=O)=O | 1.6 | 1.6
O=c1c2ccccc2nc2c(-c3nc(-c4ccccc4)no3)cccn12 | -2.9 | -0.83
CCOC(=O)c1cc(S(=O)(=O)N2CCC(C(=O)OCC)CC2)[nH]n1 | 0.5 | x
COc1ccc(NS(=O)(=O)c2cn(C)cn2)cc1 | 1.6 | -0.85
O=C(NCCN1CCOCC1)NC1COc2ccccc2C1 (stereo not drawn) | 1.7 | x
O=C(O)CCc1nn2c(nc3ccccc32)[nH]c1=O | x | 0.8
COc1ccc(OCCC(=O)N/N=C/C=C/c2ccccc2)cc1 | x | -1.9
Cc1ccc2c(=O)cc(C(=O)Nc3nc4ccc(C)cc4s3)oc2c1 | 1.4 | -1.5
CC(C)C1CC(CCN2CCOCC2)(c2ccccc2)CCO1 (stereo not drawn) | 2.9 | -1.5
CCOc1ccc(NS(=O)(=O)c2c(C)nc3sccn3c2=O)cc1 | 0.24 | -2.2
N#CC1=C2SCN(Cc3ccco3)CN2C(=O)CC1c1ccc(F)cc1 (stereo not drawn) | -1.5 | 6*
CCOc1ccc(-n2c(SCc3nc(-c4cccs4)no3)nnc2-c2ccncc2)cc1 | 1.6 | -0.94
CC1CC(=O)c2cn3nc(-c4ccncc4)nc3nc2C1 (stereo not drawn) | 0.25 | -1
CCOCCCn1c(=S)[nH]c2c(sc3ccccc32)c1=O | x | -4.6
COc1cccc(N2CC(=O)N(/N=C/c3ccccn3)CC2=O)c1 | x | -1.4

# A different layout for some results above.
# Results follow in this order: TAR Tat displ, CDC25B-CDK2 inh
CCOC(=O)c1cnc(C(F)(F)F)nc1Oc1ccccc1
  x, -1.6
O=C(O)CCc1nn2c(nc3ccccc32)[nH]c1=O
  x, 0.8
COc1ccc(OC)c(NC(=O)Nc2nc(-c3nc4ccccc4[nH]3)cs2)c1
  0.95, 0.71
COc1ccc(OCCC(=O)N/N=C/C=C/c2ccccc2)cc1
  x, -1.9
COc1cc(S(=O)(=O)N2CCc3ccccc3C2)c(C)cc1C
  x, -1.1
Cn1ncc2c(Nc3ccc(F)cc3)nc(N)nc21
  0.66, -1.2
CCC(=O)N1c2ccccc2CC1C(=O)NCc1ccco1 (stereo not drawn)
  0.89, x

# Additional results
canonical_smiles | TAR Tat displ | CDC25B-CDK2 inh
Cc1csc2c(=O)[nH]cnc12 | x | -1.4
O=C(c1cccs1)N1c2nc(-c3ccco3)nn2C2(CCCCC2)[C@@H]2CCCC[C@@H]21 | -0.02 | -2
COc1cccc(C2=NN(c3nc(C)cs3)C(c3cc(OC)c(OC)c(OC)c3)C2)c1 (stereo not drawn) | -5.7 | -1.4
Cc1ccc(NC(=O)c2cc(Br)cc3c2OCC3)cc1 | x | -2.2
Cn1c(=O)c2cc(C(=O)N3CCN(c4ncccn4)CC3)sc2c2ccccc21 | 0.32 | -0.1
CC(=O)Oc1ccc(C(=O)Nc2ccc3nc(-c4ccc(Cl)cc4)oc3c2)cc1 | x | -0.4
Cc1cc(=O)n2nc(N(C)CC(=O)NCCC3=CCCCC3)sc2n1 | 0.87 | 0.44
Clc1cccc(CN2CCc3nc(N4CCN(c5ccccc5)CC4)ncc3C2)c1 | -1.4 | x
CC1CN(C(=O)N2CCC(C(=O)NC3CCCC(C)C3C)CC2)c2cc(Cl)ccc2O1 (stereo not drawn) | -0.06 | x
O=C(Nc1cccnc1)c1ccc(Cn2nc(N3CCN(c4ccccc4)CC3)ccc2=O)o1 | 1.8 | x
Cc1nn(C(C)C(=O)N2CCCCCC2)c(=O)c2cc3occc3n12 (stereo not drawn) | x | -1.2
COC(=O)c1sc(N2C(=O)c3oc4ccc(F)cc4c(=O)c3C2c2ccc(SC)cc2)nc1C (stereo not drawn) | -1.7 | -0.59
CCN1CCc2c(sc(-n3cccc3)c2C(C)NC(=O)Nc2cc(Cl)c(OC)cc2OC)C1 (stereo not drawn) | -7.4 | x
COc1ccc(Br)cc1Cc1nc(C)cc(Cl)n1 | 0.26 | -1.6
CC(C)=NNc1ccc(=S)[nH]n1 | x | 0.95
COc1cc(C2C(=O)N(C3CCC(C)CC3)CC(=O)N2Cc2ccc(F)cc2)ccc1OC(C)C (stereo not drawn) | x | 0.23
CC1(C)CC(=O)C=C(Nc2cc(-c3ccc(Cl)cc3)[nH]n2)C1 | 0.88 | -0.92
Cc1ccc(-n2c(C)c3c(C)nnc(C)c3c2C)cc1N | 1.9 | 1.8
Cc1csc2nc(CCNS(=O)(=O)c3cccs3)cn12 | 1.1 | x
CCCCC(CC)C1OC(C)CC(C)(C)O1 (stereo not drawn) | x | -2
Cc1nc2c(c(SCCCOc3ccccc3)n1)CCC2 | 0.38 | 0.48
CCCCC(C(=O)N/N=C/c1ccccn1)C(=O)N/N=C/c1ccccn1 | x | -1.1
COCCOC(=O)C1=C(C)Nc2nc3ccccc3n2C1c1ccccc1C (stereo not drawn) | -0.92 | -1.2
Cn1cc(S(=O)(=O)N2CCc3ccccc32)cc1C(=O)NCc1ccc2c(c1)OCO2 | -1.3 | 0.5
CCCCOc1ccc(S(=O)(=O)NCc2ccco2)cc1 | 1.2 | -1.3

# The listing continues.
mol | TAR Tat displ | CDC25B-CDK2 inh
CC1CCCC(C)N1C(=O)C1=CC(c2cccs2)=NS(=O)(=O)N1C (stereo not drawn) | 0.51 | -0.54
O=C(NC1CCCCC1)C1CCN(c2ccc(F)cc2)C1=O (stereo not drawn) | 0.52 | x
C=CCn1c(CC(C)C)nc2ccccc21 | 0.43 | 0.87
O=C(Nc1ccc(-c2nc3ccccc3o2)c(O)c1)c1ccc([N+](=O)[O-])o1 | 1.8 | -0.23
COc1ccc(C(=O)CSc2nn3c(=O)c(C(C)(C)C)nnc3s2)cc1 | 0.53 | x
Cc1nc(-n2cccc2)sc1C(=O)NC1CCC(C)CC1 (stereo not drawn) | 0.22 | -1.6
Cc1csc2nc(CNS(=O)(=O)c3ccc4c(c3)OCCO4)cn12 | 1.5 | -1.4
Cc1ccc(-c2nnc(C3CCN(S(=O)(=O)c4ccc5nc(-c6ccccc6)[nH]c5c4)CC3)o2)cc1 | 13 | -1.9
COc1ccc(-c2onc(C)c2C)cc1S(=O)(=O)Nc1cc(Cl)ccc1C | 1.1 | x
COC(=O)c1sccc1NC(=O)NC(c1ccc(Cl)cc1)c1nnc(-c2ccccc2)o1 (stereo not drawn) | 1.8 | x
O=S(=O)(Nc1ccc(Cl)cc1)c1ccc2[nH]c3c(c2c1)CCCC3 | 0.29 | x
Cc1cc(N2CCN(c3ccccc3)CC2)n2ncnc2n1 | 1.8 | -0.86

# Reprinted from the part before: two compounds, followed by the next part.
mol | TAR Tat displ | CDC25B-CDK2 inh
O=S(=O)(Nc1ccc(Cl)cc1)c1ccc2[nH]c3c(c2c1)CCCC3 | 0.29 | x
Cc1cc(N2CCN(c3ccccc3)CC2)n2ncnc2n1 | 1.8 | -0.86
CCc1ccc(S(=O)(=O)NCc2c(C)nn(CC)c2C)cc1 | 0.58 | x
Brc1ccc(OCc2nnnn2-c2ccccc2)cc1 | -1.1 | -0.32
Cc1c(C2CCN(S(=O)(=O)c3cn(C)cn3)CC2)c2ccccc2n1Cc1cccc(Cl)c1 | 1.4 | x
Cc1ccc(Nc2nc3ccccc3n3cnnc23)cc1F | -0.94 | 1.9
O=C(c1cnn(-c2ccc(F)cc2F)c1C1CCNCC1)N1CCN(c2ncccn2)CC1 | 0.55 | x
CCOC(=O)Cc1csc(NC(=O)/C=C\c2cccc([N+](=O)[O-])c2)n1 | x | -0.9
O=C(O)c1ccccc1CS(=O)c1ccccc1 (stereo not drawn) | x | -1.9
CCCCN(C)C(=O)Cn1ncc2c3ccccc3n(CCC)c2c1=O | -0.69 | x
Cc1cc(-c2ccc(S(=O)(=O)N(C)c3ccc(C)c(C)c3)s2)on1 | 0.66 | x
O=C(Nc1ccc(S(=O)(=O)Nc2nccs2)cc1)C1COc2ccccc2O1 (stereo not drawn) | 0.51 | 0.39
CCS(=O)(=O)c1ccc(O)c(NC(=O)CC2(CC(=O)O)CCCC2)c1 | x | -2.4
COc1ccccc1-c1noc(CSc2nnc(-c3ccncc3)n2-c2ccc(F)cc2)n1 | 0.83 | -2.1
Cc1sc(-n2cccc2)c(C(=O)Nc2ccc(Br)cc2F)c1C | -0.29 | 2.9
O=C(CCn1c(=O)c2sccc2n(Cc2ccc(F)cc2)c1=O)NCc1ccc2c(c1)OCO2 | x | -0.6
O=C(CN1CCN(c2nc3cc(Cl)ccc3s2)CC1)N(c1ccccc1)C1CCCCC1 | x | -1.8
COc1ccc(C2SCCN2S(=O)(=O)c2ccc3ccccc3c2)cc1OC (stereo not drawn) | -0.11 | -1.4
COc1ccc(CNCc2cc(F)ccc2F)cc1OC | -0.11 | -0.95
C=CCSc1nnc2[nH]c(=O)cc(N)n12 | 0.02 | 0.78&-0.29
O=C1Cc2cc(S(=O)(=O)NCc3cccs3)ccc2N1 | 0.05 | x
COc1ccc(C2=C(C)C(=NC3CCCC3)NS2(=O)=O)cc1 | -1.8 | -0.85
O=C(NCCc1cccs1)c1cccs1 | x | -0.85
CCOC(=O)Cc1csc(-n2nc(C)c(Cl)c2C)n1 | 1.7 | -0.53
COc1ccc(NC2=NS(=O)(=O)C(c3cccc(Br)c3)=C2C)cc1OC | -0.2 | -1.9
O=c1c2c(F)cccc2nc2sc3ccc(Cl)cc3n12 | x | 0.44
Clc1ccc(-c2nnc3ccc4ccccc4n23)cc1 | 1.5 | 0.99
Cc1ccc(CNC(=O)N2CCn3cccc3C2C(C)C)cc1 (stereo not drawn) | -0.93 | x
CCOC(=O)c1c(NC(=O)c2nc3n(n2)C(C(F)F)CC(C)N3)sc2c1CCC(C)C2 (stereo not drawn) | 1.1 | -0.17
O=C(CSc1nnc(-c2cccs2)o1)N1CCCc2ccccc21 | 0.72 | -1.3
CCOC(=O)C1=C(C)Nc2nc(SCC(C)C)nn2C1c1ccccc1C (stereo not drawn) | 1.7 | -1.8
